YopH inh: blocks Yersinia enterocolitica YopH tyrosine phosphatase. fluorescence Ex485/Em525. inhibition, %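 (about 10 µM by stock and volumes)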. hit rate 0.16% among 140,000. AID 898;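 active means inhibition of 50% or more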;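 further: controls were vehicle for no effect and minimum signal wells for full effect; inactives centre near -20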
Mtb betalactam: beta-lactam sensitization of Mtb H37Rv | M. tuberculosis H37Rv growth with meropenem, percent inhibition; hits of this screen are not shown here | inhibition, % at 25 µM | hit rate 0.27% among 330,000 | AID 434955;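 active means about 74% or more and at least 40 points above the plate without the antibiotic, then above 30% in a dose series; inconclusive means first-round hits that could not be retested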;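 further: growth measured after seven days incubation then overnight dye step; 0% = bacteria only wells and 100% = bacteria with antibiotic; twin plates without the antibiotic show which effects depend on it; some results filed as inactive read as strong as hits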
Mtb growth: M. tuberculosis H37Rv growth inhibitors, H37Rv strain (AID 1626); M. tuberculosis H37Rv growth inhibition; higher % means a stronger effect; inhibition, % at 10 µM, or IC50 in µM where a hit was titrated; hit rate 0.95% among 220,000;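 active means confirmed in a dose series; inconclusive means inhibition above 80% but not taken into the dose series; inactive means below 80% or under 30% at every dose of the series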;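 further: bacteria incubated seven days before Alamar blue readout; 0% = bacteria only wells and 100% = bacteria with antibiotic wells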
RecA intein inh: inhibitors of M. tuberculosis RecA intein splicing; P9WHJ3; cell-free RecA intein splicing, fluorescence; inhibition, %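 (about 9 µM by stock and volumes)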; hit rate 0.75% among 290,000; in the data active means inhibition above about 30%; inconclusive means no clear call, values can overlap the other calls;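 further: 0% = vehicle wells and 100% = reference inhibitor control wells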
Target sequence (P9WHJ3 whole entry, looked up): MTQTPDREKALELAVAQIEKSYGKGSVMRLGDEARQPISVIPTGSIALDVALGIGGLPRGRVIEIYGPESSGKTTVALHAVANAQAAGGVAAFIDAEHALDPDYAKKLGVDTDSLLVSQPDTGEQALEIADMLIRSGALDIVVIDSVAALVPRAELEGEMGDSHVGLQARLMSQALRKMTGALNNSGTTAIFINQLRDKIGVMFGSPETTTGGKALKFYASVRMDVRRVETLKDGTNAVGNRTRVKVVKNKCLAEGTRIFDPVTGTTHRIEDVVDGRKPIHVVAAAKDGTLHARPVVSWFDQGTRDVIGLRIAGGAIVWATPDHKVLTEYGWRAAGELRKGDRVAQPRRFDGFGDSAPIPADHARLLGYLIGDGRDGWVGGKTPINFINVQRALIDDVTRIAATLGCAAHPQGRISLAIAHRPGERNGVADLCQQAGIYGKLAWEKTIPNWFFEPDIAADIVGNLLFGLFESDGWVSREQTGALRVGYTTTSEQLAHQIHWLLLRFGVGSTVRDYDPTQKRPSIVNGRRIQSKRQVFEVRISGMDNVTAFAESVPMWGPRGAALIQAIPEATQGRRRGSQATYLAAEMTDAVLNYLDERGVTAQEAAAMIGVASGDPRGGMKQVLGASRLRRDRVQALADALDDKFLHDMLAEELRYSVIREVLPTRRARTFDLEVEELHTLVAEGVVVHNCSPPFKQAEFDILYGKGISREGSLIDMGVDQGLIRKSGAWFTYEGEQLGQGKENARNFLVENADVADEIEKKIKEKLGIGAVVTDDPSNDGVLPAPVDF
Arbovirus inh: blocks arbovirus infection; arbovirus infection cell-based antiviral screen; inhibition, % at 10 µM; hit rate 0.37% among 200,000; AID 1251;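 active means inhibition from about 30%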;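 further: bluetongue infection of BSR cells; cell survival read as ATP light after 72 h; 0% = infected wells without compound and 100% = uninfected wells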
* marks the source's active call; other numbers are inactive results; u = inconclusive; x = not tested or not shown.

The opening 3 entries, to show the layout:
SMILES	YopH inh	Mtb betalactam	Mtb growth	RecA intein inh	Arbovirus inh
Cc1nn2cc(-c3ccc(-c4ccccc4)cc3)nc2s1	-21	26	5%	0.4	-27
Cc1noc(C)c1CSc1nnc2sc3ccccc3n12	-30	-15	-5%	-1.1	17
CCn1c(NC(=O)c2ccccc2F)c(-c2cccs2)c(=O)c2ccccc21	x	0	-4%	0.2	x

The listing, previewed entries included:
SMILES	YopH inh	Mtb betalactam	Mtb growth	RecA intein inh	Arbovirus inh
Cc1nn2cc(-c3ccc(-c4ccccc4)cc3)nc2s1	-21	26	5%	0.4	-27
Cc1noc(C)c1CSc1nnc2sc3ccccc3n12	-30	-15	-5%	-1.1	17
CCn1c(NC(=O)c2ccccc2F)c(-c2cccs2)c(=O)c2ccccc21	x	0	-4%	0.2	x
O=C1NC(=Nc2ccccc2Cl)S/C1=C\c1cc([N+](=O)[O-])ccc1O	x	7	x	6.8	x
O=[N+]([O-])c1ccc(OCc2cccc(COc3ccc([N+](=O)[O-])cc3)n2)cc1	-22	6	-3%	-5.7	2
COc1ccc(C2=NOC(CNC(=O)c3ccccc3Br)C2)c(OC)c1 (centres undefined)	x	-1	-3%	-0.8	x
CCCC1S/C(=N/N=C/c2ccc(OC)cc2)N(Cc2ccc(OC)cc2)C1=O (centres undefined)	-15	10	-1%	0.4	11
O=C(Nc1nnc(C2CC2)s1)c1ccncc1	-21	-4	-4%	-5.2	1
O=C(NC(=S)Nc1ccc(N2CCOCC2)c(Cl)c1)C(c1ccccc1)c1ccccc1	2	4	27%	-4.0	-7
Cc1cnc(C(=O)OCC(=O)N2CCN(S(=O)(=O)c3ccc(Cl)cc3)CC2)cn1	x	-2	x	-1.6	x
Cc1ccc(S(=O)(=O)Cn2nnnc2CN(Cc2ccco2)CC2CCCO2)cc1 (centres undefined)	-118	-6	-2%	x	5
O=C(C1=C[C@@H](c2ccc(C(F)(F)F)cc2)C[C@@H](OCCCCO)O1)N1CCN(Cc2ccccc2)CC1	x	2	1%	3.8	-7
Cc1n[nH]c(=O)c2c(NC(=O)COC(=O)COc3cccc(Br)c3)oc(C)c12	x	-7	x	3.4	x
O=C(CSc1nc2ccccc2nc1N1CCCCC1)N1CCN(c2ccccc2)CC1	x	-1	x	9.4	x
O=C1CCc2cc(NS(=O)(=O)c3ccc(Br)cc3)cc3c2N1CC3	x	-9	x	0.3	x
CCOc1cc(/C=C(\C#N)c2nc(-c3cccs3)c(NC(C)=O)s2)ccc1O	-10	2	0%	-2.6	-13
O=C(NC1CCCCC1)c1cc([N+](=O)[O-])ccc1N1CCCC1	x	-5	x	0.3	x
C/C(=C\C(=O)c1ccc(C)o1)Nc1ccc(C(=O)O)cc1C	30	-3	-11%	x	1
COc1ccc(-c2cc(C(F)(F)F)n3nc(C(=O)NCCCn4ccnc4)cc3n2)cc1	3	-10	10%	-29	-1
Cc1ccc(C)c(Nc2ncnc(N)c2[N+](=O)[O-])c1	-23	0	-2%	-0.1	-9
CCS(=O)(=O)c1ccc(O)c(NC(=O)CCCC(=O)O)c1	x	-10	61%	-2.2	x
O=C1C(Cc2ccc(F)cc2)SC(=Nc2ccccc2)N1c1ccccc1 (centres undefined)	-31	10	x	3.0	-5
COc1ccc(-c2nc(CS(=O)(=O)CC(=O)NCc3cccc(OC)c3OC)c(C)o2)cc1	x	2	x	1.2	x
CCN(CC)S(=O)(=O)c1ccc(OCC2CCCCO2)c([N+](=O)[O-])c1 (centres undefined)	x	-4	x	1.0	x
CN1C(=O)C2ON(c3ccccc3)C(c3cccs3)C2C1=O (centres undefined)	0	-2	-7%	1.7	2
Further compounds follow:
SMILES	YopH inh	Mtb betalactam	Mtb growth	RecA intein inh	Arbovirus inh
CCOC(CCn1ccc(O)c(Cc2ccc(Cl)cc2)c1=O)OCC	x	8	x	1.3	x
COc1ccc(CSc2nc(C)cc(C)c2S(C)(=O)=O)cc1	x	-2	0%	4.4	7
Cc1onc(-c2ccccc2)c1CNS(=O)(=O)c1ccccc1[N+](=O)[O-]	x	-8	-12%	0.0	x
O=[N+]([O-])c1cc(S(=O)(=O)Nc2cccc(Cl)c2)ccc1N/N=C/c1ccc(N2CCOCC2)cc1	x	17	-2%	1.2	x
CN(C)CCN(C(=O)c1ccc2ccccc2c1)c1nc2c(F)cc(F)cc2s1	x	-1	x	4.9	x
CCOC(=O)C1=C(COc2ccc(C)cc2)NC(=O)NC1c1cc(C)ccc1C (centres undefined)	-25	1	-2%	-0.7	-4
NCCc1ccc(O)c(O)c1	-6	0	-10%	-5.4	-8
C/C(CC(=O)Nc1ccc2c(c1)OCCO2)=N\NC(=O)c1ccccn1	x	100	53%	-5.1	20
Cc1ccc(-n2nc3c(=O)n(C(C)C(=O)NCc4ccccc4Cl)nc(C)c3c2C)cc1 (centres undefined)	x	-4	x	4.8	x
O=C(Nc1ccccc1C(=O)N/N=C/c1ccco1)c1ccc(Cl)cc1	-41	0	6%	2.8	-22
Cc1cccc(N2CCN(Cc3cc(=O)n4ccsc4n3)CC2)c1C	0	-5	0%	-0.4	13
NC(=NC1CCCCC1)c1ccc([N+](=O)[O-])cc1	-17	-7	-3%	-0.8	1
Cc1ccc(S(=O)(=O)N(C)c2ccccc2C(=O)Nc2c(F)cccc2F)cc1	x	-4	x	-0.1	x
CCOC(=O)c1c(C)[nH]c(C(=O)OCC(=O)NC(C)(C)C)c1C	x	1	1%	-4.3	-2
CCN(CC)c1ccc(CN(C)CCc2ccc(OC)c(OC)c2)cc1	-24	1	1%	-2.7	-15
NC(=O)C1CCN(C(=O)c2ccc(NC3=NC4CS(=O)(=O)CC4S3)cc2)CC1 (centres undefined)	-33	1	63%	-4.4	7
O=C(NCc1ccccc1Cl)C1CCC(CNc2nc(=S)[nH]c3ccccc23)CC1 (centres undefined)	x	67	10%	-0.8	4
NC(=O)c1oc2ccccc2c1NC(=O)Cc1ccccc1	x	-4	x	-6.0	x
O=C1CCCN1CCCNCC(=O)N1c2ccccc2Sc2ccccc21	-9	5	9%	-3.6	2
O=c1c2c3c(sc2ncn1/N=C/c1ccc(Br)o1)CCCC3	-23	-7	-4%	0.9	0
O=C(c1cccs1)N1CCN=C1SCc1ccc(Cl)cc1	x	-1	50%	-8.2	7
CCn1[nH]c(=O)c(=Nc2c(C)n(C)n(-c3ccccc3)c2=O)cc1-c1ccc(Cl)cc1	-44	-11	2%	-2.3	-19
CN(C(=O)COC(=O)/C=C/c1ccccc1[N+](=O)[O-])c1ccccc1	x	-8	-6%	-0.8	7
COc1ccc(CC(=O)NNC(=O)COc2ccc3ccccc3c2)cc1	-8	3	10%	0.7	3
CN(Cc1ccccc1)S(=O)(=O)c1cn(C)cn1	x	-1	3%	1.5	x

An excerpt of these results, bar-delimited.
smiles | YopH inh | Mtb betalactam | Mtb growth | RecA intein inh | Arbovirus inh
Cc1ccc(C)c(Nc2ncnc(N)c2[N+](=O)[O-])c1 | -23 | 0 | -2% | -0.1 | -9
CCS(=O)(=O)c1ccc(O)c(NC(=O)CCCC(=O)O)c1 | x | -10 | 61% | -2.2 | x

Additional structures
SMILES	YopH inh	Mtb betalactam	Mtb growth	RecA intein inh	Arbovirus inh
Clc1ccc(Nc2ccc(NCc3ccccc3)nn2)cc1	-5	-1	8%	5.1	-34
CCn1c(SCc2nc3scc(-c4ccccc4)c3c(=O)[nH]2)nnc1-c1cccs1	-22	-17	-3%	3.8	0
Cc1ccc(C(=O)OCC(=O)N2CCOCC2)cc1	x	-2	x	-1.5	x
COC(=O)c1ccc(C(=O)N2CCCC(CNC(=O)c3ccc(F)cc3)C2)cc1 (centres undefined)	x	4	x	0.9	x
CCCOc1ccc(/C(O)=C2/C(=O)C(=O)N(CCCn3ccnc3)C2c2cccs2)cc1 (centres undefined)	-31	-7	-4%	-0.4	1
Cc1ccc(NC(=O)COC(=O)Cc2csc(-c3cccc(F)c3)n2)cc1C	-8	4	-3%	0.2	2
O=C(NCc1ccncc1)c1ccc(NS(=O)(=O)c2cccc([N+](=O)[O-])c2)cc1	x	-3	x	-1.7	x
CCOP(=O)(/C=C(\Cl)c1ccccc1)C(O)c1ccc(F)cc1 (centres undefined)	x	-7	x	-1.5	x
CCN(C(=O)C1CCCN(c2nc(-c3ccc(OC)cc3)no2)C1)c1ccccc1F (centres undefined)	x	5	x	6.6	x
CC1(C)CC(=O)C2=C(C1)OC1=C(C(=O)CC(C)(C)C1)C2c1ccc(O)c([N+](=O)[O-])c1	x	-2	-5%	2.8	0
COc1ccc(C(=O)N2CCN(Cc3ccc4c(c3)OCO4)CC2)cc1[N+](=O)[O-]	x	-8	0%	-5.5	2
COc1cc(/C=N/NC(=O)c2cccnc2)ccc1OC(=O)c1ccco1	-22	-9	1%	24	4
Cc1ccc(-c2csc(-c3cc(C)on3)n2)cc1	x	1	-9%	1.2	x
NC(=O)CC[C@@H]1NC(=O)[C@@H]2CCCN2C(=O)c2cc([N+](=O)[O-])cc(I)c2NCCCC[C@@H](C(=O)NC(CC(=O)O)C(N)=O)NC1=O (some centres undefined)	-28	3	0%	0.6	-5
COCCN1CN(S(=O)(=O)c2cccc(Cl)c2)c2nc3ccccc3nc21	x	7	x	1.2	x
CN1CCN(c2ccc(-c3ccnn3C(=O)Nc3cccc(C(F)(F)F)c3)cc2)CC1	x	3	52%	-3.0	-14
O=c1c2ccsc2ncn1Cc1ccc(Cl)cc1	-31	-13	0%	-1.7	-21
O=C(CCc1nc(-c2ccccc2)no1)N1CCCC1	-18	5	0%	0.8	-4
Cn1c(=O)n(C/C=C/c2ccccc2)c(=O)c2c1nc1n2CCCN1Cc1ccccc1	-50	33	-2%	15	-10
Cc1ccc(C(=O)CSC2=C(C#N)C(c3ccco3)C3=C(CCCC3=O)N2)cc1 (centres undefined)	-46	94	-2%	-0.3	-12
COc1ccccc1NC(=O)/C=C1\SCC(=O)N1C	x	-1	-2%	4.8	2
O=C1CCN(C(=O)CNC(=O)Cc2ccccc2)CC1	x	-1	-3%	6.2	2
COc1cccc(NC(=O)Nc2nnc(Cc3ccccc3)s2)c1	x	2	x	-0.8	x
COc1ccc(CCNC(=O)C2CC3Cn4c(nc5cc6ccccc6cc54)C3N2C)cc1 (centres undefined)	x	-2	-10%	0.1	x
O=C(NCC(c1ccco1)N1CCOCC1)c1cccc(Cl)c1 (centres undefined)	x	3	x	1.9	x

2 compounds picked at random from those above, as already listed:
SMILES	YopH inh	Mtb betalactam	Mtb growth	RecA intein inh	Arbovirus inh
CCN(C(=O)C1CCCN(c2nc(-c3ccc(OC)cc3)no2)C1)c1ccccc1F (centres undefined)	x	5	x	6.6	x
COc1ccc(CSc2nc(C)cc(C)c2S(C)(=O)=O)cc1	x	-2	0%	4.4	7

Some values from the entries so far.
For RecA intein inh, COc1ccc(CCNC(=O)C2CC3Cn4c(nc5cc6ccccc6cc54)C3N2C)cc1 (centres undefined) is listed with 0.1
For Mtb betalactam, Cc1ccc(C(=O)OCC(=O)N2CCOCC2)cc1 is listed with -2
For RecA intein inh, O=C(NCc1ccncc1)c1ccc(NS(=O)(=O)c2cccc([N+](=O)[O-])c2)cc1 is listed with -1.7

Continuation:
SMILES	YopH inh	Mtb betalactam	Mtb growth	RecA intein inh	Arbovirus inh
CCCOc1ccc(-c2c(C(=O)N/N=C/C3CCCCC3)nnn2-c2nonc2N)cc1	x	0	x	-0.9	x
O=C(COc1ccc(Br)cc1Cl)NC(=S)N1CCc2ccccc21	-10	86	9%	0.2	-8
CC(C)(C)N(Cc1ccccc1)C(=O)c1ccc(Br)o1	x	9	5%	0.8	0
COc1ccc(NS(=O)(=O)c2cccs2)c(OC)c1	-18	-7	3%	-3.9	-7
COc1ccccc1N(C)S(=O)(=O)c1ccc(C(=O)NC2=NCCS2)cc1	10	-7	-3%	0.7	2
COc1ccc(Br)cc1CN(C)C(C)C(=O)Nc1cc([N+](=O)[O-])ccc1OC (centres undefined)	-11	-9	6%	2.7	-2
Nn1c(SCc2nc3ccccn3c2Br)nnc1-c1cccnc1	-37	-10	-21%	-2.4	10
Cc1[nH]c2c(Cl)cccc2c(=O)c1CN1CCCC1	-30	-2	x	-3.4	14
CC(C)(C)NC(=O)CSc1nc2ccc(NC(=O)CSc3nnc(N)s3)cc2s1	-17	u	0%	-0.1	8
O=C(C1CCCN(S(=O)(=O)c2ccc(Br)cc2)C1)N1CCOCC1 (centres undefined)	x	-13	x	2.7	x
COC(=O)C1=C(C)N(C)C(=O)NC1c1ccc(O)c(Cl)c1 (centres undefined)	x	-11	6%	0.0	3
CCN(CC)CCNC(=O)c1ccc(NC(=O)c2c(F)cccc2Cl)cc1	x	-8	-3%	0.7	-5
Cc1ccc(Cn2cc(SCC(N)=O)c3ccccc32)cc1	x	-3	-4%	4.6	5
CNC(=O)OCCSCCS(=O)(=O)c1ccc(Cl)cc1	x	-2	-1%	1.5	x
CN(C)C(=O)N1CCCC(C(=O)NCc2ccccc2)C1 (centres undefined)	-23	1	4%	0.5	-2
CCS(=O)(=O)N1CCN(C(=O)c2ccc(-c3ccccc3)cc2)CC1	-43	-2	9%	3.4	5
Cc1ccc(CNC(=O)[C@@H](NC(=O)C2CCN(C(=O)[C@@H]3CCCN3)CC2)C(C)C)cc1	x	-5	x	6.9	x

Not all compounds are listed; rates above refer to the full screens.
